NPR1 antag – human Npr1 receptor antagonism | HEK293 hNpr1 GloSensor cGMP, ANP-stimulated luminescence | P16066 | hit rate 1.6% among 76,000 | Potency, µM (top dose mostly 46.3 µM), inactives show at the highest dose activity change, negative = inhibition, usual class: inhibitors; active = well fitted inhibition curve with a large enough effect; inconclusive = small, poorly fitted or top-dose-only effect; inactive = no such curve, though single readings can be large or run the other way;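 further: nearly all actives have a fitted effect of over 60% in size; nearly all hits also lower the signal before the agonist is added; a reference antagonist and vehicle were the controls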
Target sequence (P16066 whole entry, looked up): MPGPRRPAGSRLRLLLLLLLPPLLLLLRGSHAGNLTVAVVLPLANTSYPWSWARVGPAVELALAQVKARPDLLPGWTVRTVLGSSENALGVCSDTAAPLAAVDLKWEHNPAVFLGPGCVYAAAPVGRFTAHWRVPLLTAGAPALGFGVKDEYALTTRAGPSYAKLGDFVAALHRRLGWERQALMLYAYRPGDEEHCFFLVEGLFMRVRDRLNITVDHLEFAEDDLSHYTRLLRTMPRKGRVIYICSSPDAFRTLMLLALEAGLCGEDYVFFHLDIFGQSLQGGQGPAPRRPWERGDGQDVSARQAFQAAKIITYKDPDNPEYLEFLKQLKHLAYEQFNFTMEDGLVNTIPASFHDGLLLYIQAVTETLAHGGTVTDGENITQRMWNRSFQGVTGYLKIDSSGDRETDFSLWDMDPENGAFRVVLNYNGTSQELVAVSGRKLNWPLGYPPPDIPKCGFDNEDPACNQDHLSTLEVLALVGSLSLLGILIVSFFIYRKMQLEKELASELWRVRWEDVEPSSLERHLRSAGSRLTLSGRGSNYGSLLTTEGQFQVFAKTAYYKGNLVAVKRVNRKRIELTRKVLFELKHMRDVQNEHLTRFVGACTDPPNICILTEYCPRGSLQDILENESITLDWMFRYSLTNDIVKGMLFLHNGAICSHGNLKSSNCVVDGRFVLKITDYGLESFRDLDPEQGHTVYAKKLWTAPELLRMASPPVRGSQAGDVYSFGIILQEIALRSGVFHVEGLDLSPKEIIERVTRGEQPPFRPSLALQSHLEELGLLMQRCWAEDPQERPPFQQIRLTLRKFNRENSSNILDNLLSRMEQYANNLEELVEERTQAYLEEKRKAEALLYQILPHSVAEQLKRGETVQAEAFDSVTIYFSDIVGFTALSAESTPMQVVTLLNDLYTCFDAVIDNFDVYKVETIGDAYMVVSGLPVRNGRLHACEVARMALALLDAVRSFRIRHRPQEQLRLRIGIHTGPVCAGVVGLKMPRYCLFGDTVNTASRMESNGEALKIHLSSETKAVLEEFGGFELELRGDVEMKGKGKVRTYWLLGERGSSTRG
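Compound pre-incubated 30 min at room temperature on GloSensor-loaded HEK293 cells stably carrying hNpr1 and the pGS-40F cGMP biosensor. Stimulation uses hNppA at 0.1 nM final; luminescence is taken at baseline and 20 min post-agonist.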
The depositor's hits bear a star; ? = inconclusive; [ ] = dose if it differs, or a comment. On the % scale 0 is the no-effect control and ±100 the full control effect; potency means the concentration at half of the fitted maximal effect.

Structure	NPR1 antag
O=C1NCC2(CCN(c3nccc(CCC(F)(F)F)n3)CC2)O1	3%
COc1ccc(-c2noc(-c3cccn3CC(=O)Nc3cc(C)ccc3OC)n2)cc1F	0%
COc1ccc(CC(=O)N2CCC(Oc3ccc(C(=O)N(C)C)cn3)CC2)cc1Cl	-3%
COc1ccccc1-c1nc(C(=O)NC2CC2)n2ccccc12	0%[70.6 µM]
CN(Cc1nc(-c2ccccc2)cs1)C(=O)COc1ccc(F)cc1F	-14%
CCn1ncc(CN(C)C(=O)c2cc(COc3ccccc3)[nH]n2)c1C	5%
CCOc1cc(C(=O)N2CCCN(c3cc(-c4ccc(F)cc4)[nH]n3)CC2)cc(OCC)c1OCC	0%
COc1ccc2nc([C@H]3CCN(Cc4ccccc4F)C3)[nH]c2c1	-3%[70.6 µM]

Additional records:
Structure	NPR1 antag
COC(=O)[C@@H](C)NC(=O)c1coc(COc2cccc(C(F)(F)F)c2)n1	-19%
COc1ccc(C(=O)N2CCCC3(C2)NC(=O)c2ccccc2O3)cc1 (configuration not stated)	0%
O=C(NCc1nnc2cc(-c3nc(C4CC4)no3)ccn12)c1nccc2ccccc12	-3%
c1coc(-c2noc(CNCc3cccnc3-n3cncn3)n2)c1	-1%
COc1ccc(C(=O)N[C@H]2C[C@H]3C(=O)NC[C@@H](CCC(=O)NCc4ccccc4)N3C2)cc1	-8%
COc1ccc(-c2noc([C@@H]3C[C@@H](O)CN3Cc3cccnc3)n2)cc1	?
O=C(CCc1cc(Cl)no1)N1CCc2c(nc3cc(-c4ccccc4)[nH]n3c2=O)C1	-10%
CC(C)c1cccc(NC(=O)c2ccc3c(c2)N(C)C2CCCCN2C3=O)c1 (configuration not stated)	-6%

Other results:
Structure	NPR1 antag
Cc1ccc(-c2noc([C@@H]3Cc4nc[nH]c4CN3C(=O)Nc3ccccc3)n2)cc1	?
Cc1ccc(NC(=O)N2CCC(c3noc(COCC4CC4)n3)CC2)cc1F	?
CCC(CC)CN1C[C@]23C=C[C@H](O2)C(C(=O)N(C)CCn2ccnc2C)C3C1=O (some centres not stated)	1%
CC1=C[C@@H](CC#N)[C@H](C(C)C)C[C@H]1CC(=O)N1CCOCC1	-6%[70.6 µM]
O=C(NC[C@H]1O[C@H](Cc2cc(CN3CCNCC3)on2)CC[C@@H]1O)c1ccccc1F	0%
CSc1cccc(NC(=O)N[C@H]2CCN(C(=O)c3cccn3C)[C@@H]2C(=O)N[C@H]2CCCNC2=O)c1	6%
COCC1CN(C(C)=O)CC12CCN(Cc1cccc(Cl)c1F)CC2 (configuration not stated)	2%
O=C(c1ccccc1N1CCOCC1)N1CCCn2nc(CO)cc2C1	-2%

Next section:
Structure	NPR1 antag
COc1ccccc1CN1CC(COc2ccccc2)C2(C1)CN(C(=O)c1cn[nH]c1)C2 (configuration not stated)	-24%[70.6 µM]
OCC1CN(C2CCC2)CC12CCN(Cc1ccc(Br)o1)CC2 (configuration not stated)	-9%
CCCc1noc(-c2ccn3c(CNC(=O)c4ccc(C)cc4)nnc3c2)n1	1%
COC(=O)C1CCN([C@H]2[C@@H]3OC[C@@H](O3)[C@@H](NC(=O)Nc3cccc(C#N)c3)[C@@H]2O)CC1	8%[70.6 µM]
Cc1ccc2nc(SCCC(=O)N3CC[C@@](C)(O)[C@@H](O)C3)cc(C)c2c1	6%
Nc1nc(CCCNC(=O)C2CC(=O)N(Cc3ccccn3)C2)cs1 (configuration not stated)	8%
CN(C)c1nc2c(c(=O)[nH]1)CCN(Cc1ccc(Cl)cc1)CC2	1%
COc1ccc(C2(C(=O)N3CC4CC(C3)[C@H]3CCCC(=O)N3C4)CC2)cc1 (some centres not stated)	7%

(further entries)
Structure	NPR1 antag
Cc1cccc(NC(=O)N2CC(Oc3ccccc3-c3noc(C)n3)C2)c1	-15%
CC(C)(C)c1nnc([C@H]2CCN(Cc3cnc4ccccc4c3)C2)o1	-17%[70.6 µM]
Cc1ncccc1Oc1ncnc(-c2cc(N)nc3[nH]ccc23)c1C	-7%
COc1ccccc1OCCCN1CCN(Cc2ccccc2)CC(O)C1 (configuration not stated)	0%
CC(C)Oc1cccc2c1c(NC(=O)C1CCCO1)nn2Cc1ccccc1 (configuration not stated)	4%
CN1C(=O)COC[C@@H]1[C@H](O)c1ccc(NC(=O)c2ccccc2)cc1	5%[70.6 µM]
O=C(NCc1ccc(OC(F)(F)F)cc1)NC1CCc2n[nH]c(=O)n2CC1 (configuration not stated)	2%
Fc1ccc(-c2cnc3n2C[C@H](CNCC2CCCCC2)OC3)cc1	-15%[70.6 µM]

Continued:
Structure	NPR1 antag
COc1ccc(C(=O)N2CCCC(Cc3ncc(C)n3Cc3ccc(F)cc3)C2)cn1 (configuration not stated)	3%
O=C(NCc1cccnc1)c1c(OCC2CC2)cc(=O)n2c1CCCCC2	1%
COc1ccccc1-c1ccc2c(n1)CN(Cc1csc(C)n1)C(=O)CO2	-2%[70.6 µM]
Cc1ccccc1CNC(=O)COc1ccc(NC(=O)C2CC2)cn1	4%
CNC(=O)N1CCCN(C)c2ccccc21	-1%
O=C(NCc1ccnc2[nH]ccc12)c1ccc2ccccc2n1	?
O=C(CN1C(=O)NC2(CCCCC2)C1=O)N1CCCCCC1	0%
CN(C(=O)C1CC1)C1CCCc2ccccc21 (configuration not stated)	0%[70.6 µM]

3 entries from above, field by field:
> Cc1ccccc1CNC(=O)COc1ccc(NC(=O)C2CC2)cn1
  NPR1 antag: 4%

> CNC(=O)N1CCCN(C)c2ccccc21
  NPR1 antag: -1%

> O=C(NCc1ccnc2[nH]ccc12)c1ccc2ccccc2n1
  NPR1 antag: ?

(continued)
Structure	NPR1 antag
O=C(Cc1ccccc1)Nc1ccc([C@@H](O)[C@H]2COCC(=O)N2Cc2ccccn2)cc1	-3%[70.6 µM]
O=C1CCN(C(=O)CCCc2ccccc2)CCCC(CO)CCN1 (configuration not stated)	0%
O=C(NCc1ccccn1)C1CCN(C(=O)C2(c3ccc(F)cc3)CC2)CC1	-4%
Cc1cc(C)n(CCC(=O)NCC2Cn3cccc3C(=O)N2Cc2ccccc2)n1 (configuration not stated)	1%
CN1CCCCCCN(S(=O)(=O)c2ccccc2)CCC1=O	1%
COCc1nc(NCCc2nc(-c3ccccn3)no2)c2cnn(C)c2n1	0%
COc1cc(OC)c(OC)cc1CN1CCC(O)(CN2CCCC2)CC1	-4%
COCCNc1ncc(-c2ccc(O)cc2)c2c1OCC2	6%[70.6 µM]

Later entries:
Structure	NPR1 antag
CC1CCC(NC(=O)c2nnn3c2COC(c2ccc(F)cc2)C3)CC1 (configuration not stated)	?
CCCS(=O)(=O)N1CC[C@H](c2nc(C)no2)[C@H](NC(=O)COC)C1	2%
Cc1ccc(-c2cc3c(nc2-c2ccccc2)nc(C(=O)NCCN(C)C)n3C)cc1	3%[70.6 µM]
CC(=O)N1CCOc2ccc(CCC(=O)NCc3nc4ccccc4n3C)cc2C1	2%
COc1ccc(O[C@H]2COCCN(S(=O)(=O)c3ccc(F)cc3)C2)cc1	4%[70.6 µM]
COc1ccc(C(=O)NCC2Cn3cccc3CN2Cc2cccnc2)cc1 (configuration not stated)	2%
CCOc1ccccc1NC(=O)N1c2ccccc2CC1c1noc(C(C)C)n1 (configuration not stated)	-2%
COc1ccc(NC(=O)N2CCc3c(nc4cc(-c5ccccc5)[nH]n4c3=O)C2)c(OC)c1	-2%

Continuation:
Structure	NPR1 antag
CC(NC(=O)c1cc(-c2ccc(F)cc2)cn1C)c1ccccn1 (configuration not stated)	-22%
CCc1noc(-c2cccn3c(CNC(=O)CCc4ccccc4)nnc23)n1	13%
COCCN1C(=O)c2ccccc2C(C(=O)Nc2cccc(C)n2)C12CCCC2 (configuration not stated)	-2%
NCC(=O)N1CCCCCCNC(=O)CC1c1ccccc1 (configuration not stated)	3%
COc1ccc(C(=O)N2CCCCCCNC(=O)[C@@H]3C[C@@H](c4nc(C(C)C)no4)C[C@@H]32)cc1F	-4%
CNC(=O)[C@H]1C[C@H](Oc2cccnc2)CN1C(=O)NC1CCCCC1	-10%
O=C1OC[C@@H]2CCN(C3CCC3)Cc3ccc(F)cc3N12	5%[70.6 µM]
CS(=O)(=O)c1ccc(O[C@H]2COCCN(Cc3ccccn3)C2)cc1	0%[70.6 µM]

(more compounds)
| smiles | NPR1 antag |
| --- | --- |
| C=CCc1cc(C2CC(=O)Nc3[nH]ncc32)cc(OCC)c1OC (configuration not stated) | -3% |
| CC(Oc1ccccc1)C(=O)N1CCCN(c2cc(-c3ccc(Cl)cc3)[nH]n2)CC1 (configuration not stated) | ? |
| CCNC(=O)N1C[C@@H](Oc2ccccc2)C[C@H]1C(=O)N1CCOCC1 | 2% |
| CCNC(=O)Cc1ccc(N(Cc2ccc(C)cc2)C(=O)c2ccco2)cc1 | 1% |
| O=C(CCc1nc2ccccc2s1)N1CCC(c2noc(C3CC3)n2)C1 (configuration not stated) | 3% |
| COc1ccc(CN2CC[C@H](c3nc(C)no3)[C@H](NC(=O)C3CC3)C2)cc1 | 1% |
| CN1CCN(C(=O)c2ccc(-c3ccc(N4CCSCC4)nc3)cc2)CC1 | -29% |
| CN1CCC2(CCC1=O)CN(Cc1nc(C(N)=O)no1)CCN2C (configuration not stated) | 0% |
| O=C(NCCc1noc(-c2ccncc2)n1)NC1CCCCC1 | -2% |
| Cc1ccc(-c2cc3c(=O)n(CCNC(=O)Cc4ccc(Cl)cc4)ccn3n2)cc1C | 0% |
| Cc1ccccc1C(=O)N1CCC(c2nn(Cc3ccccc3)c(=O)[nH]2)CC1 | 22% |
| CCCN1CCCC2(CCN(C(=O)c3cc(CC)[nH]c(=O)c3)C2)C1=O (configuration not stated) | 4% |
| Cc1nn2c(c1-c1cccc3cn[nH]c13)N(C(=O)Cc1ccccc1)CCC2 | -25%[70.6 µM] |
| CCCN1CCC2(CCN(C(=O)Nc3ccc(Cl)cc3)CC2)Oc2ccccc21 | -9% |
| CCc1nc2c(c(-c3ccc(Cl)cc3)n1)CCN(C(=O)c1ccc(C(F)(F)F)cc1)CC2 | 0% |

Compounds from the list above with a CF3 group:
| smiles | NPR1 antag |
| --- | --- |
| O=C1NCC2(CCN(c3nccc(CCC(F)(F)F)n3)CC2)O1 | 3% |
| COC(=O)[C@@H](C)NC(=O)c1coc(COc2cccc(C(F)(F)F)c2)n1 | -19% |
| O=C(NCc1ccc(OC(F)(F)F)cc1)NC1CCc2n[nH]c(=O)n2CC1 (configuration not stated) | 2% |
| CCc1nc2c(c(-c3ccc(Cl)cc3)n1)CCN(C(=O)c1ccc(C(F)(F)F)cc1)CC2 | 0% |

(further entries)
| smiles | NPR1 antag |
| --- | --- |
| O=C(c1nnn2cc(-c3ccccc3)[nH]c(=O)c12)N1CCN(C2CCCCC2)CC1 | 1% |
| CN(C)CCN(C)[C@@H]1[C@H](O)[C@H](CO)O[C@@H]1CN(Cc1ccc(Cl)cc1)Cc1cccc(Cl)c1 | ? |
| O=C(NC1CCN(c2cc(-c3ccc(F)cc3)[nH]n2)C1)c1ccc2[nH]ccc2c1 (configuration not stated) | -8% |
| COc1ccccc1CNC(=O)c1cc2cn(C3CC3)cc2s1 | -19% |
| CN(Cc1nc(COc2ccccc2)no1)CC1(N2CCOCC2)CCCCC1 | -4% |
| COCCNC(=O)[C@@H]1C[C@H](Oc2ccccc2)CN1C(=O)c1cccn1C | 4% |
| COCCCNC(=O)c1cn2ccnc(-c3ccc(OC)cc3)c2n1 | -4% |
| O=C1NCCCCCCN(C(=O)NCc2ccc(F)cc2)[C@H]2CCCC[C@@H]12 | 4% |
| CCO[C@@H]1COCC[C@H]1NC(=O)c1ccoc1COc1ccc(C)cc1 | -6% |
| CC(Cc1ccccn1)N(C)C(=O)Cc1ccc(F)c(F)c1F (configuration not stated) | 9% |
| Cc1csc(S(=O)(=O)N2CCCC3(CCC(=O)N(CC4CC4)C3)C2)c1 (configuration not stated) | -8% |
| N#Cc1ccc(CN2CCCC(c3nc(-c4cccnc4)no3)CCNC(=O)CC2)cc1 (configuration not stated) | -15% |
| c1cn(-c2ccc(-c3cscn3)cc2)c(-c2cc3n(n2)CCCNC3)n1 | 1% |
| CS(=O)(=O)N1CCC2(CCC(=O)N(CC3CCCO3)C2)CC1 (configuration not stated) | 0% |
| O=c1[nH]c(CN2CCCn3nc(CO)cc3C2)nc2ccsc12 | 0% |

The results go on:
| smiles | NPR1 antag |
| --- | --- |
| COC1C(=O)N(c2cccc(F)c2)C12CCN(S(=O)(=O)Cc1ccccc1F)CC2 (configuration not stated) | -25% |
| O=C(CCn1ccn2nc3c(c2c1=O)CCCC3)NCc1ccc(F)cc1Cl | 0% |
| CN(C)CC(=O)N1CCC2(C1)CN(C)c1ccc(C(=O)Nc3ccccc3)cc12 (configuration not stated) | -12%[70.6 µM] |
| Cc1cccc(CC(=O)N2CCC3(CC2)N(C)C(=O)CS3(=O)=O)c1 | -2% |
| Cn1nc(C2CCN(C(=O)c3ccccc3F)CC2)[nH]c1=O | 0%[70.6 µM] |
| CC(C)N1C[C@H](O)C[C@H]1c1nnc2n1CCN(C(=O)c1ccc(Cn3ccnc3)o1)CC2 | 3% |
| O=C(C1CCCC1)N1CCc2nc(-c3ccc(Cl)cc3)nc(-c3ccccc3)c2C1 | -13% |
| O=c1c2c(n(Cc3cccnc3)n1CCc1ccccc1)CN(Cc1cccc(O)c1)CC2 | -1% |
| COCCOC1CN(C2CCN(C(=O)c3nn(C)c4ccccc34)CC2)C12CCCCC2 (configuration not stated) | 0% |
| CCn1cc(S(=O)(=O)N2CCC3(CC2)CC(OCC2CC2)CCO3)cn1 (configuration not stated) | -7% |
| CN(Cc1ccc2c(c1)OCO2)Cc1cc2n(n1)CCNC2 | 2% |
| CCn1nccc1C(=O)N1CCC(Oc2ccccc2)C1 (configuration not stated) | 0% |

Bioassay records: PubChem BioAssay, National Center for Advancing Translational Sciences (NCATS)

A portion of the library (hit frequency here may not be typical).
